# SARS PLpro yeast = qHTS of Yeast-based Assay for SARS-CoV PLP; S. cerevisiae expressing SARS-CoV PLpro, growth rescue; control for the full effect not named in the record; Potency, µM (top dose mostly 32.9 µM), for inactives: at the top dose activity, positive = growth rescue; hit rate 0.19% among 330,000; AID 485353, 2010; active means well fitted rising curve with a large enough effect; inconclusive means small, poorly fitted or top-dose-only effect; inactive means no such curve, though single readings can be large or run the other way; also: 0% is about no effect; nearly all actives have a fitted effect of over 55% in size; growth read by luminescence after 48 h
# LASV entry inh = qHTS for Inhibitors of binding or entry into cells for Lassa Virus | hit rate 1.2% among 300,000 | Lassa virus pseudotype entry inhibition, cell reporter; control for the full effect not named in the record | Potency, µM (top dose mostly 37.9 µM), without a hit: top-dose activity change, negative = inhibition, actives largely listed as inhibitors | AID 540256, 2011; active means well fitted inhibition curve with a large enough effect; inconclusive means small, poorly fitted or top-dose-only effect, or effect the other way; inactive means flat fitted curve, though single readings scatter; tested in HEK293 cells; also: % is scaled to controls: 0 for no effect and ±100 for the full control effect; nearly all actives have a fitted effect of over 50% in size; luciferase read-out
# Marburg entry inh = qHTS for inhibitors of binding or entry into cells for Marburg Virus; hit rate 1.8% among 300,000; AID 540276, 2011; Potency, µM (top dose mostly 37.8 µM), without a hit: at the top dose activity change, negative = inhibition, hits mostly inhibitors; Marburg virus pseudotyped entry inhibition, cell reporter; control for the full effect not named in the record; about a third of the inactives were read at about 46 µM; active = well fitted inhibition curve with a large enough effect; inconclusive = small, poorly fitted or top-dose-only effect, or effect the other way; inactive = flat fitted curve, though single readings scatter; tested in HEK293 cells; about a fifth of its hits are not listed in these tables; also: % is scaled to controls: 0 for no effect and ±100 for the full control effect; luciferase read-out
# RE007 growth inh = qHTS Assay for Inhibitors of the HIV-1 protein Vpr | S. pombe RE007 Vpr strain, BacTiter-Glo ATP luminescence, 24 h; control for the full effect not named in the record | Potency, µM (doses to about 92.2 µM), for the others: at the highest dose activity change, negative = less growth | hit rate 0.21% among 360,000; active = well fitted falling curve with a large enough effect; inconclusive = small, poorly fitted or top-dose-only effect; inactive = no such curve, though single readings can be large or run the other way;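 also: % is scaled to controls: 0 for no effect and ±100 for the full control effect; nearly all actives have a fitted effect of over 50% in size; the assay follows cell death caused by Vpr and the record does not say whether a fall means rescue or toxicity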
#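 Fission yeast RE007 carrying one integrated HIV-1 vpr copy, seeded at OD 0.01 in PMG+AL medium with 23 nL pinned compound. Grown 24 h at 30 degrees; viability read by BacTiter-Glo luminescence after 5 min.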
# Cruzain inh Det = qHTS Assay for Promiscuous and Specific Inhibitors of Cruzain (with detergent); Cruzipain (Trypanosoma cruzi), P25779; purified cruzain, Z-FR-AMC fluorescence, 0.01% Triton; Potency, µM, without a hit: max response, negative = inhibition, hits mostly inhibitors; hit rate 0.43% among 200,000;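 also: plate controls were neutral wells for no effect and buffer without enzyme for full effect; nearly all actives have a fitted effect of over 40% in size; top concentration of the series not given in the record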
# Target sequence (P25779 123-467 limits assumed): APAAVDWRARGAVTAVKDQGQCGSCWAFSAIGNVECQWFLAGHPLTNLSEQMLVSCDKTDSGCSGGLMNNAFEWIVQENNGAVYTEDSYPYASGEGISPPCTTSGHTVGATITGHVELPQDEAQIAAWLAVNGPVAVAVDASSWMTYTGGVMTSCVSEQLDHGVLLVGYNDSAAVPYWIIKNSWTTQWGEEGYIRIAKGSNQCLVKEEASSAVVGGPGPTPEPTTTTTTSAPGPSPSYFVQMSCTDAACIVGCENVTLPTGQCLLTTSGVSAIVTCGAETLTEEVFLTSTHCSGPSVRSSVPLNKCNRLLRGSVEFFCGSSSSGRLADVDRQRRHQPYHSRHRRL
#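 Compounds were screened in titration against cruzain (1.5 nM) with 0.01% Triton X-100 to counter colloidal aggregation. Activity was the AMC fluorescence increase over 60 s after adding 2 uM Z-FR-AMC at pH 5.5.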
# Cruzain inh noDet = qHTS Assay for Promiscuous and Specific Inhibitors of Cruzain (without detergent); Cruzipain (Trypanosoma cruzi), P25779; purified cruzain, Z-FR-AMC fluorescence, no detergent; Potency, µM, for the others: max response, negative = inhibition, usual class: inhibitors; hit rate 2.3% among 200,000;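 also: plate controls were enzyme without inhibitor for no effect and buffer without enzyme for full effect; nearly all actives have a fitted effect of over 40% in size; top concentration of the series not given in the record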
#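 Detergent-free condition (0.00005% Triton X-100) in acetate buffer pH 5.5 with DTT. 1.5 nM enzyme and compound were pre-mixed 15 min, then 2 uM Z-FR-AMC substrate added; reaction progress from fluorescence change between first and third reads (60 s).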
# 2A StopGo = High Throughput Screening for Foot and Mouth Disease Virus Antivirals | human cells with a luciferase reporter of 2A StopGo recoding; control for the full effect not named in the record | Potency, µM (doses to about 57.9 µM), without a hit: at the highest dose signal change, negative = less light | hit rate 1.2% among 410,000; active = well fitted falling curve with a large enough effect; inconclusive = small, poorly fitted or top-dose-only effect; inactive = no such curve, though single readings can be large or run the other way; tested in HEK293T cells; also: % is scaled to controls: 0 for no effect and ±100 for the full control effect; nearly all actives have a fitted effect of over 45% in size; luciferase light after 4 h
# NS1 function inh = qHTS Assay for Inhibitors of Influenza NS1 Protein Function | S. cerevisiae slowed by influenza A NS1, growth recovery by OD600 | Potency, µM (titrated, usually from 46.1 µM), without a hit: at the highest dose activity, positive = more growth | hit rate 0.4% among 270,000 | AID 2326, 2010; active means well fitted rising curve with a large enough effect; inconclusive means small, poorly fitted or top-dose-only effect; inactive means no such curve, though single readings can be large or run the other way; also: nearly all actives have a fitted effect of over 50% in size
#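 Growth recovery, yeast-based: influenza A NS1 expressed in S. cerevisiae causes slow growth, and suppressors are detected by OD600. The parent strain without NS1 is used as positive control.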
# * marks the source's active call; other numbers are inactive results; ? = inconclusive; . = no result given; [ ] = another dose, or the depositor's remark. Unless noted, calls follow the shape of the dose curve; as a rule, active = well fitted curve in the direction sought with a large enough effect; inconclusive = small, poorly fitted or top-dose-only effect, or another doubt; inactive = no such curve, though single readings can be large; an effect the other way counts as inactive or inconclusive. Potency is read from the fitted curve at half-maximal effect.
# The line under a structure holds: SARS PLpro yeast	LASV entry inh	Marburg entry inh	RE007 growth inh	Cruzain inh Det	Cruzain inh noDet	2A StopGo	NS1 function inh
O=C(Cn1c(=O)n(CCCS(=O)(=O)C2CCCCC2)c(=O)c2ccccc21)Nc1ccccc1C(F)(F)F
 : .	-4%[46.1 µM]	-2%[46.1 µM]	.	-5.3%	-17%	-22%	.
Cc1ccc(C(=O)Nc2ccc(C(=O)O)cc2)cc1S(=O)(=O)Nc1cccc([N+](=O)[O-])c1
 : 4%	0%	9%[46.1 µM]	-19%	.	.	4%	.
Cc1ccc(C(=O)N2CC(C)OC(C)C2)cc1[N+](=O)[O-] (stereo not drawn)
 : 1%	13%	1%[46.1 µM]	-10%	.	.	-13%	-2%
CCOCCCn1c(=N)c(S(=O)(=O)c2ccc(Cl)cc2)cc2c(=O)n3cccc(C)c3nc21
 : .	8%[46.1 µM]	11%[46.1 µM]	.	-0.9%	-6%	-3%	.
COc1ccc(OC)c(-n2nnc3c(sc4nc(C)c(Br)c(C)c43)c2=O)c1
 : .	0%[46.1 µM]	18%[46.1 µM]	.	-8.7%	16%	-10%	.
COC(C(=O)N/N=C(\C)CC(=O)Nc1ccc(N(C)C)cc1)c1ccccc1 (stereo not drawn)
 : 0%	?	-6%[46.1 µM]	3%	.	.	-11%	-1%
O=C(CSc1nnc(CNC(=O)c2ccc(F)cc2)o1)NCc1ccccc1Cl
 : 2%	3%	17%	?	.	.	-16%	12%
C=CCC1Cc2c(cccc2[N+](=O)[O-])C(CC=C)N1 (stereo not drawn)
 : 0%	2%	2%	-16%	.	.	-15%	8%
Cc1c(C(=O)NN)[nH]c2ccc([N+](=O)[O-])cc12
 : -1%	-18%	?	-7%	.	.	-1%	4%
CC1=CC2=NC(=O)CC(C)(C(=O)N(CC(=O)NC(C)(C)C)Cc3ccccc3)N2C=C1 (stereo not drawn)
 : 0%	-12%[46.1 µM]	?	1%	.	.	-2%	-1%
Cc1ccc(-n2nnnc2SCC(=O)Nc2ccccc2N2CCCCC2)cc1C
 : 9%	?	13µM*	2%	4.1%	-29%	-1%	-31%
c1cncc(-c2nn3cnnc3s2)c1
 : 1%	-9%	0%	1%	6.9%	2%	-12%	?
Cc1cccc(SCc2noc(C(=O)NCC3CCCO3)c2C(=O)O)c1 (stereo not drawn)
 : 4%	.	.	25%	-2.0%	8%	4%	4%
CCC(C)N=C1SCC(C)(/C=N/O)S1 (stereo not drawn)
 : 15%	5%	-3%	-11%	-1.1%	3%	-17%	-3%
CCOCCn1c(SCCc2ccccc2)nc2c1c(=O)[nH]c(=O)n2C
 : 0%	.	.	-10%	0.0%	2%	-4%	7%
COc1ccccc1NC(=O)C(C(C)C)N1C(=O)c2ccccc2C1=O (stereo not drawn)
 : 2%	.	.	3%	.	.	-24%	-3%
COc1ccc(CCNS(=O)(=O)c2c(C)nc3scc(C)n3c2=O)cc1OC
 : -7%	3%	-20%[46.1 µM]	-3%	.	.	-22%	-7%
COc1ccc(-n2c(SC)nc3sc4c(c3c2=O)CCN(C(C)=O)C4)cc1
 : .	?	?	.	1.9%	24%	?	.
CC(NC(=O)c1cc(-c2ccc3c(c2)OCO3)nc2ccccc12)C(C)(C)C (stereo not drawn)
 : -4%	-20%	12%	-2%	-4.3%	13%	-6%	3%
CN(C(=O)c1cc2c(s1)-c1ccccc1S(=O)(=O)C2)c1ccccc1F
 : -3%	-8%	-5%[46.1 µM]	1%	.	.	-21%	-3%
CCC(=O)N1CCN=C1SCc1ccc(Cl)cc1
 : 1%	4%	-15%	-13%	-1.5%	2%	-10%	7%
O=C(CSc1nnc(-c2ccccc2Cl)o1)N1CCCC1
 : -1%	2.8µM*	?	-2%	.	.	40%[activator]	14%
O=C1OC(c2ccccc2)/C(=C(/O)c2ccccc2)C1=O (stereo not drawn)
 : -27%	7%	18%	16%	2.4%	-2%	-19%	10%
CCC1Oc2ccc(Cl)cc2N(CC(=O)NCCc2ccc(Cl)cc2)C1=O (stereo not drawn)
 : .	2%[46.1 µM]	.	.	0.2%	-10%	?	.
Cc1cc(F)ccc1NC(=O)CS(=O)(=O)c1cccc2nsnc12
 : .	0%[46.1 µM]	.	.	-3.0%	1%	-19%	.
O=C(N/N=C/C1CC=CCC1)c1cc(Br)ccc1O (stereo not drawn)
 : ?	10%	?	-1%	-7.7%	4%	3%	-26%
O=C(CSc1nc2ccc([N+](=O)[O-])cc2[nH]1)NC1CCCC1
 : -3%	7%	-5%	21%	1.7%	2%	?	-10%
CCc1ccccc1NC(=S)N=Nc1c(O)n(C)c2ccc(S(=O)(=O)N3CCOCC3)cc12
 : -1%	?	?	-5%	-8.3%	7%	0%	?
COc1ccc(C(=O)COC(=O)/C=C/c2ccccc2)cc1
 : 2%	12%	1%	-7%	.	.	10%	1%
CCOc1ccccc1C(=O)NN1CCOCC1
 : 4%	.	.	-2%	.	.	-14%	-3%
COc1ccccc1NC(=O)C1CCCN(c2cnccn2)C1 (stereo not drawn)
 : 15%	.	.	-14%	.	.	10%	10%
O=C(NNc1nc(-c2ccc(F)cc2)cs1)c1ccccc1
 : 5%	?	?	36%	.	.	13%	6%
CC(=NCCCn1ccnc1)C1=C(O)c2ccccc2C1=O
 : 9%	22%	7%	5%	-3.2%	-6%	.	5%
O=C1CC(c2cccnc2)=NN1c1ccccc1
 : ?	0%	-2%[46.1 µM]	?	.	.	-11%	.
O=C(Nc1ccc(/C=C/c2nc3ccccc3o2)cc1)c1c(F)cccc1F
 : -1%	?	?	-4%	-0.8%	10µM*	-14%	7%
COC(=O)c1ccc(NC(=O)CSc2nn3c(=O)c(C)nnc3s2)cc1
 : -5%	18%[46.1 µM]	?	1%	.	.	-6%	-3%
O=C(O)CC/C(=C\c1cc([N+](=O)[O-])ccc1Cl)c1nc2ccccc2s1
 : -37%	-9%	7%	19%	-18%	28%	-11%	6%
CC1(C)C(=O)OC(c2cc(Br)ccc2O)C(C)(C)C1=O (stereo not drawn)
 : 11%	-2%	-5%	-5%	-9.4%	2%	35µM*	-5%
CC(=O)Nc1ccc(N(C(=O)c2ccco2)C(C(=O)NC2CCCCC2)c2ccccc2)cc1 (stereo not drawn)
 : -4%	?	?	-19%	.	.	41%[activator]	-9%
Cc1ccc(CN2CCC(CNC(=O)c3ccc(NC(=O)C4=CSCCO4)cc3)CC2)cc1
 : -3%	.	.	3%	.	.	0%	1%
S=c1[nH]c2cc3c(cc2[nH]1)OCCO3
 : 1%	14%[46.1 µM]	?	10%	.	.	21%	5%
Cc1ccccc1-c1noc(-c2ccccc2C(=O)O)n1
 : 1%	5%	5%[46.1 µM]	-6%	.	.	44%[activator]	-3%
CCOc1ccc(N(CC)C(=O)c2cc3c(=O)oc4ccccc4c3s2)cc1
 : .	-5%[46.1 µM]	12%[46.1 µM]	.	-1.6%	5%	?	.
Cc1cc(C(=O)NN=C(Cc2ccccc2)Cc2ccccc2)c(C)o1
 : 0%	1%	15%	-2%	-4.6%	-9%	-5%	16%
CC(C)(C)NC(=O)NC(=O)CN1CCCc2ccccc21
 : 0%	-2%	-20%[46.1 µM]	13%	.	.	-16%	.
O=C(CCc1nnc2ccc(NCc3ccco3)nn12)Nc1ccc(F)cc1
 : 0%	-19%[46.1 µM]	?	17%	.	.	6%	15%
O=C(NC(=S)NCCC1=CCCCC1)c1cncc(Br)c1
 : 13µM*	?	?	15%	-8.5%	-26%	-9%	14%
COc1ccccc1C(CNC(=O)CCNC(=O)c1ccccc1Cl)N1CCCC1 (stereo not drawn)
 : .	7%	-9%[46.1 µM]	-5%	.	.	-20%	.
CSc1ccccc1NC(=O)COC(=O)CCCOc1ccc(C)cc1
 : 2%	16%	16%	-28%	.	.	-17%	.
O=C(Nc1ccc(O)c2c(=O)cc(-c3cccc(Cl)c3)oc12)c1ccc(F)cc1
 : 1%	?	.	3%	.	.	3%	-1%
COc1ccc(C(=O)NCC2(c3ccccc3)CCOCC2)cc1[N+](=O)[O-]
 : -22%	-2%	?	-5%	-2.9%	-2%	-11%	-5%
COc1ccccc1C(c1nnnn1C1CCCC1)N1CCN2CCCC2C1 (stereo not drawn)
 : 10%	?	?	9%	2.0%	-2%	.	-6%
O=C(Cn1cnc2sc3c(c2c1=O)CCCC3)NCC(=O)Nc1c(F)cc(F)cc1Br
 : -2%	21%[46.1 µM]	-25%[46.1 µM]	14%	.	.	-9%	1%
CC/C(=C\c1ccc(Cl)cc1)c1ccncc1
 : .	3%[46.1 µM]	-8%	-5%	.	.	?	.
O=C(CSc1nnc(SCc2ccc(Cl)cc2)s1)c1ccc2c(c1)OCO2
 : ?	1%	4%	0%	-2.0%	-8%	-19%	4%
COc1ccc(C(=O)N2CCN(Cc3ccccc3)CC2)cc1[N+](=O)[O-]
 : 2%	.	.	4%	.	.	-26%	-5%
CCn1c(=O)c2cc(C(=O)N3CCOCC3)sc2c2ccccc21
 : 1%	.	.	-3%	-3.2%	4%	-4%	-34%
Cc1nn(CC(=O)NC2CCC(C)CC2)c(=O)c(C#N)c1C (stereo not drawn)
 : 0%	15%	-6%[46.1 µM]	11%	.	.	-12%	.
COc1ccc(C(=O)OCC(=O)Nc2cccc(C(C)=O)c2)c(OC)c1OC
 : -1%	.	3%[46.1 µM]	-9%	.	.	-21%	-27%
CC(=O)Nc1cccc(C(=O)/C=C/c2ccc(Br)cc2)c1
 : -41%	?	15µM*	?	-2.5%	?	25µM*	-7%
Cc1cc(NC(=O)CSc2ccc3nnc(-c4cccs4)n3n2)no1
 : 0%	.	.	-9%	-2.4%	-23%	0%	-18%
Cc1ccc2c(c1)N(CC(=O)NC1CCCC1)C(=O)CO2
 : -1%	-7%	-2%[46.1 µM]	-7%	.	.	-29%	1%

# Rows are unselected; any-hit rate near 4.6%.
